rRNA inh HTS – reduced GFP signal of wild-type E. coli, primary screen, bacterial rRNA inhibitor project, GFP/RFP fluorescence, OD600, single point | 350,000 tested, 1.6% active | E. coli WT GFP vs humanized-ribosome RFP mutants, 24 h; hits give low values; DMSO median 0, no signal -100 | AID 720706, 2013 | GFP signal change (wild-type ribosome), % (no concentration beside the values);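 active means significant combined selectivity score with lowered wild-type GFP, culture density cut under 30%, mutant RFP and density less affected; inactive means any of these conditions unmet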; further: one replicate is shown; some compounds called inactive have numbers as strong as hits
FGF22 binding – binders of human FGF22 protein, primary screen, FGF22 synaptogenesis inhibitor project, biophysical, thermal shift, single point; Fibroblast growth factor 22 (Homo sapiens), Q9HCT0; recombinant FGF22 thermal shift, SYPRO orange fluorescence; percent of sucrose octasulfate shift, DMSO zero; calls only at 9.99 µM; 340,000 tested, 1.5% active; AID 651658, 2012;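 active means melting point raised past a set limit in the mean and every replicate; three in four hits are not shown here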
Target sequence (Q9HCT0 whole entry, looked up): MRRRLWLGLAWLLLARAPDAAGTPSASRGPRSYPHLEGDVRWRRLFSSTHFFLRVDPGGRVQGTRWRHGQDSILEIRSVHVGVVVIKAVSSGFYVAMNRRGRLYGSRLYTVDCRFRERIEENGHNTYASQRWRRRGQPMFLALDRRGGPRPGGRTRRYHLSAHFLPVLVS
AF4-AF9 inh – inhibitors of AF4 peptide binding to AF9, primary screen, biochemical, AlphaScreen, biotin-AF4 peptide, FLAG-AF9, single point; Protein AF-9 (Homo sapiens), P42568; inhibition, % at 10 µM; 350,000 tested, 0.47% active;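 active means every replicate reaching a set inhibition limit, whatever the replicate mean, cut at about 25% in these data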;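 further: 0% = plate neutral control median and 100% = total signal loss; the record names both 10 and 1 µM as test concentration; the first replicate is given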
Target sequence (P42568 whole entry, looked up): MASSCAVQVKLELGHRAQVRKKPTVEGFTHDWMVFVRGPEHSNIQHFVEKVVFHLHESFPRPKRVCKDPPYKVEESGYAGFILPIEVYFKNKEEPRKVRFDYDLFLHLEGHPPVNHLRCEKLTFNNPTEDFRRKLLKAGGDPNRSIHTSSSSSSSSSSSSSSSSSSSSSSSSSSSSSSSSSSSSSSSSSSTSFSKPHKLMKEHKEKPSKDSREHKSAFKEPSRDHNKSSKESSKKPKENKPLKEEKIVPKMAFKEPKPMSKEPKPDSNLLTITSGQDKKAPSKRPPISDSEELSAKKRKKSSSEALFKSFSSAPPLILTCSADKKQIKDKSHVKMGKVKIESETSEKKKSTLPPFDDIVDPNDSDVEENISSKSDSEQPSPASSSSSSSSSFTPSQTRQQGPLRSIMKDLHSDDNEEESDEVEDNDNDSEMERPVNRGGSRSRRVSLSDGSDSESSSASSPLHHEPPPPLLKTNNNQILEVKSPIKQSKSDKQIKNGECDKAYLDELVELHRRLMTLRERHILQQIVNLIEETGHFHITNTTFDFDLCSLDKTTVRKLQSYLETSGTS
rRNA inh HTS OD600 – also measured in rRNA inh HTS; calls as there; OD600 change, %; measured here: OD600 growth;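 optical density of the mix in the first replicate; 0 = DMSO median and -100 = no signal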
rRNA inh HTS RFP – recorded beside rRNA inh HTS, whose call it bears; RFP signal change, %; measured here: RFP humanized mutant strains;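 first replicate; 0 = DMSO median and -100 = no signal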
Active calls of the source: *; i = inactive; & = joins results of further samples. Some of the compounds tested, so the mix of outcomes need not match the whole.

SMILES | rRNA inh HTS | rRNA inh HTS OD600 | rRNA inh HTS RFP | FGF22 binding | AF4-AF9 inh
Cc1ccc(S(=O)(=O)N(C)C[C@H]2Oc3ccc(NC(=O)Nc4ccccc4)cc3C(=O)N([C@H](C)CO)C[C@H]2C)cc1 | 4 | -13 | -7.3 | i | 2.2
Cc1ccc(-c2ccc3c(c2)O[C@@H](CN(C)C(=O)CN(C)C)[C@@H](C)CN([C@@H](C)CO)S3(=O)=O)cc1 | 2 | 17 | -1.4 | i | 9.1
COc1ccc(Cc2c(-c3ccc(F)cc3)nc3ccc(Cl)cn23)c(C)c1 | 0 | 5 | 0.1 | i | 2.5
CO[C@@H]1CN(C)C(=O)c2cc(NC(=O)C3CC3)ccc2OC[C@H](C)N(C(=O)c2ccccc2)C[C@@H]1C | 1 | 2 | -0.5 | i | -1.5
Cc1noc(C)c1NC(=O)Nc1ccc2c(c1)C(=O)N([C@H](C)CO)C[C@H](C)[C@@H](CN(C)Cc1ccc(C(=O)Nc3ccccc3N)cc1)O2 | 0 | 11 | -0.7 | i | 0.1
Oc1ccc(C[C@@H](CN2CCC[C@@H]2CN2C(=S)NC[C@@H]2Cc2ccccc2)N2C[C@H](Cc3ccccc3)N(CCc3ccccc3)C2=S)cc1 | 18 | 16 | 13 | i | -0.7
COc1ccc(NC(=O)Nc2ccc3c(c2)CC(=O)N([C@@H](C)CO)C[C@@H](C)[C@H](CN(C)S(=O)(=O)c2ccc(Cl)cc2)O3)cc1 | -3 | 4 | -0.5 | i | -0.2
O=C(Nc1ccccc1)N1C[C@H]2[C@@H](c3ccccc31)[C@@H](CO)N2C(=O)c1ccccc1F | 2 | 2 | -0.5 | i | 0.7
COc1cccc(-c2cc3nc(NCc4cccnc4)n(C)c(=O)c3s2)c1 | -1 | 7 | -6.1 | i | -0.6
CCCC#Cc1cnc2c(c1)C(=O)N([C@@H](C)CO)C[C@@H](C)[C@@H](CN(C)C(=O)Cc1ccncc1)O2 | 2 | 3 | 0.3 | i | -1.7
O=C(NC[C@H]1N[C@H](CO)[C@@H]1c1ccc(C2=CCCCC2)cc1)c1cccc(F)c1 | -63 | -78 | -18 | i | 12
COCC(=O)N(C)C[C@H]1Oc2cc(C#C[C@H](C)O)ccc2S(=O)(=O)N([C@@H](C)CO)C[C@@H]1C | 4 | 9 | -2.0 | i | -2.7
C[C@@H]1CN([C@@H](C)CO)C(=O)c2cc(-c3ccccc3)cnc2O[C@@H]1CN(C)C | -4 | 0 | -3.1 | i | -4.2
CN1C(=O)c2cc(NC(=O)Nc3ccccc3F)ccc2OC[C@H]2O[C@H](CC(=O)NCCc3ccncc3)CC[C@@H]21 | 1 | 16 | -0.1 | i | 0.0
NCC[C@@H]1CC[C@@H](NC(=O)CCN2CCCCC2)[C@H](CO)O1 | 1 | 0 | 2.1 | i | 19
CC(C)COC(=O)N(C)C[C@@H]1OCc2cnnn2CCCC(=O)N([C@@H](C)CO)C[C@@H]1C | -2&-1 | 11&0 | -6.9&1.2 | i | -4.3&0.2&-1.2
O=C1CSC(=S)N1N=Cc1ccc(OCc2ccccc2)cc1 | -7 | -8 | 6.4 | i | -0.9
COc1ccc2c(CN3CCOCC3)cc(=O)oc2c1 | 35 | 9 | 2.5 | i | -0.9
CCN(c1ccccc1)S(=O)(=O)c1ccc(C(=O)N2CCN(c3ccccc3F)CC2)cc1 | -1 | -7 | -3.0 | i | -2.2
CCCNC(=O)C[C@@H]1CC[C@@H]2[C@H](COc3ccc(NC(=O)NCC)cc3C(=O)N2C)O1 | 1 | -6 | -0.3 | i | -1.5
O=C(C[C@@H]1C[C@H]2c3cc(NS(=O)(=O)c4ccc(F)cc4)ccc3O[C@H]2[C@H](CO)O1)NCCc1ccccc1 | 1 | -17 | 2.1 | i | 0.8
CCNC(=O)C[C@H]1CC[C@H]2[C@@H](COc3ccc(NC(=O)Nc4cccc(Cl)c4)cc3C(=O)N2C)O1 | 0 | -13 | 3.1 | i | 5.0
O=c1ccn(C2CC(O)C(COC(c3ccccc3)(c3ccccc3)c3ccccc3)O2)c(=O)[nH]1 (centres undefined) | -13 | -35 | 11 | i | 4.1
O=C(C[C@@H]1CC[C@H]2[C@@H](COC[C@H](O)CN2Cc2cc(F)ccc2F)O1)NCc1ccccc1 | -1 | 7 | -3.8 | i | -2.8
COc1cccc(NC(=O)N2C[C@@H](O)COC[C@H]3O[C@H](CC(=O)NC4CCC4)CC[C@@H]32)c1 | 1 | -1 | -2.8 | i | -7.9

Further records
SMILES | rRNA inh HTS | rRNA inh HTS OD600 | rRNA inh HTS RFP | FGF22 binding | AF4-AF9 inh
N#Cc1ccc(S(=O)(=O)N2CCCc3nc(-c4ccc(Br)cc4)ccc32)cc1 | 12 | 1 | -2.6 | i | -1.6
C[C@H]1CN([C@@H](C)CO)C(=O)c2cc(N(C)C)ccc2O[C@@H]1CN(C)C(=O)NC1CCCCC1 | 0 | 11 | -2.4 | i | -0.7
CCCN(C)C[C@H]1OCCCC[C@@H](C)Oc2ccc(NS(=O)(=O)c3ccc(F)cc3)cc2C(=O)N([C@@H](C)CO)C[C@@H]1C | -1 | -2 | 2.0 | i | 11
O[C@@H]1CN(Cc2cccs2)[C@@H](c2ccccc2)C[C@H]1n1cc(-c2ccc(F)cc2)nn1 | -2 | 5 | 2.0 | i | 0.4
COC(=O)[C@@]1(Cc2ccc(F)cc2)[C@H]2c3cc(C(=O)N(C)C)n(CCCNc4ncc(C(F)(F)F)cc4Cl)c3C[C@H]2CN1C(=O)c1ccccc1 | 23 | 12 | 13 | i | 5.5
C[C@@H]1CN([C@@H](C)CO)C(=O)Cc2cc(NC(=O)Cc3cn(C)c4ccccc34)ccc2O[C@@H]1CN(C)C(=O)Nc1cccc2ccccc12 | -4 | -2 | -0.4 | i | -1.4
Cc1ccccc1Oc1ccc2c(c1)[C@@H]1C[C@H]3[C@@H](C(=O)N1CC2)[C@H](C)ON3C | -37 | -61 | 0.8 | i | 0.4
CCC(=O)Nc1ccc2c(c1)C(=O)N(C)C[C@@H](OC)[C@H](C)CN(Cc1ccccc1C(=O)O)[C@@H](C)CO2 | 1 | 8 | -1.3 | i | 0.2
COc1ccccc1NC(=O)N1CCCCN2[C@@H](CO)[C@@H](c3ccc(C#CC4CCCC4)cc3)[C@@H]2C1 | -57 | -71 | -8.9 | i | 11
C[C@H](O)[C@@H]1CN2CCc3c([nH]c4ccccc34)[C@@H]2C[C@@H]1N(C)C(=O)Nc1cccc2ccccc12 | 3 | -2 | 12 | i | 5.2
O=c1[nH]c(-c2ccccc2)ncc1OCc1ccccc1 | 4 | 7 | 0.6 | i | 0.8
C[C@H]1CN([C@@H](C)CO)C(=O)Cc2cc(NS(=O)(=O)c3cn(C)cn3)ccc2O[C@@H]1CN(C)Cc1ccc(C(=O)Nc2ccccc2N)cc1 | 6 | 2 | 1.5 | i | -6.9
O=C(NCC[C@@H]1CC[C@H](NS(=O)(=O)c2ccc(Cl)cc2)[C@H](CO)O1)c1ccc2c(c1)OCO2 | -7 | -3 | -2.0 | i | -0.5
O=C(C[C@@H]1CC[C@H]2[C@@H](COC[C@@H](O)CN2C(=O)c2ccccc2)O1)NCCCN1CCOCC1 | 3 | 4 | 6.3 | i | -2.3
N#C[C@@H]1N[C@H](CO)[C@H]1c1ccc(C#CC2CCCC2)cc1 | 1 | -3 | 0.2 | i | 0.2
C[C@H](CO)N1C[C@H](C)[C@@H](CN(C)S(C)(=O)=O)Oc2ccc(NC(=O)Nc3ccccc3)cc2CC1=O | -2 | 1 | 0.5 | i | 1.4
COc1ccccc1C(=O)NCCCNc1nc2cc(C)cc(C)c2cc1C#N | 4 | 6 | 0.0 | i | -2.0
C[C@@H]1CCCCO[C@H](CN(C)Cc2ccc(Cl)c(Cl)c2)[C@@H](C)CN([C@@H](C)CO)C(=O)c2cc(NS(=O)(=O)c3cn(C)cn3)ccc2O1 | -2 | -16 | 17 | i | 7.7
CCCN(C)C[C@H]1Oc2ncc(C#CCC(C)C)cc2C(=O)N([C@H](C)CO)C[C@@H]1C | 6 | 3 | 2.5 | i | 7.2
CCC(=O)N[C@H]1CC[C@@H](CC(=O)NCc2ccccc2OC)O[C@@H]1CO | 0 | 4 | -3.3 | i | 0.4
COCC(=O)N(C)C[C@H]1Oc2ncc(/C=C/c3ccccc3)cc2C(=O)N([C@H](C)CO)C[C@H]1C | 6 | 6 | -1.1 | i | -0.7
CC(O)(c1cccc(F)c1)c1nc(-c2cc3ccccc3o2)cs1 (centres undefined) | -54 | -78 | -14 | i | -1.7
C[C@@H]1CN([C@H](C)CO)C(=O)c2cc(NC(=O)Nc3ccc(C(F)(F)F)cc3)ccc2O[C@@H]1CN(C)Cc1ccc2c(c1)OCO2 | -21 | -32 | 24 | i | 5.0
COCC(=O)N1C[C@H]2[C@@H](c3ccccc31)[C@@H](CO)N2C(=O)C1CCCC1 | 4 | 9 | -1.5 | i | -2.0
COC(=O)C[C@H]1CC[C@H]2[C@@H](COC[C@H](O)CN2S(=O)(=O)c2cn(C)cn2)O1 | 1 | -3 | -1.0 | i | -0.5

Some entries already given, showing only AF4-AF9 inh.
Structure | AF4-AF9 inh
NCC[C@@H]1CC[C@@H](NC(=O)CCN2CCCCC2)[C@H](CO)O1 | 19
CC(C)COC(=O)N(C)C[C@@H]1OCc2cnnn2CCCC(=O)N([C@@H](C)CO)C[C@@H]1C | -4.3&0.2&-1.2

Continued.
SMILES | rRNA inh HTS | rRNA inh HTS OD600 | rRNA inh HTS RFP | FGF22 binding | AF4-AF9 inh
CC(=O)Nc1cc(-c2ccc(N3CCN(C)CC3)cc2)cn2c(-c3ccc(S(C)(=O)=O)cc3)cnc12 | -3 | 0 | 1.5 | i | 13
CO[C@@H]1CN(C)C(=O)c2cc(NS(=O)(=O)c3ccc(C)cc3)ccc2OC[C@H](C)NC[C@H]1C | 0 | -3 | 1.2 | i | -2.6
C[C@@H]1CN([C@@H](C)CO)C(=O)c2cc(NS(=O)(=O)c3cn(C)cn3)ccc2O[C@H]1CN(C)Cc1ccc(C(=O)Nc2ccccc2N)cc1 | 4 | 10 | 0.5 | i | -2.4
CN(C)CC#Cc1ccc([C@@H]2[C@@H](CO)N3CCCCN(CC4CCOCC4)C[C@H]23)cc1 | 7 | 2 | -2.5 | i | 6.2
C[C@@H](NC(=O)C[C@H]1C[C@@H]2c3cc(NC(=O)C4CCOCC4)ccc3O[C@@H]2[C@@H](CO)O1)c1ccccc1 | -3 | 6 | -2.4 | i | -1.0
CCCCN(CCCC)Cc1cc(=O)oc2cc(OC)ccc12 | -22 | -23 | 9.7 | i | -7.0
COc1ccc(S(=O)(=O)Nc2ccc3c(c2)C(=O)N([C@H](C)CO)C[C@H](C)[C@@H](CN(C)S(=O)(=O)c2ccc(C)cc2)O3)cc1 | -2 | 1 | 0.7 | i | -4.7
C[C@H]1CN([C@@H](C)CO)C(=O)c2cc(/C=C/c3ccccc3)cnc2O[C@@H]1CN(C)S(=O)(=O)c1cccs1 | -9 | 12 | -2.0 | i | 2.4
O=S(=O)(c1ccccc1)N1C[C@@H]2[C@H](c3ccccc31)[C@@H](CO)N2Cc1ccc2c(c1)OCO2 | -18 | -53 | 10 | i | 3.2
C[C@H]1CN([C@@H](C)CO)C(=O)c2cc(NC(=O)NC3CCCCC3)ccc2O[C@H]1CN(C)C(=O)Nc1ccc(F)cc1 | 2 | 12 | -0.5 | i | -0.7
C[C@@H]1CN([C@@H](C)CO)C(=O)Cc2cc(NC(=O)CCCN(C)C)ccc2O[C@H]1CN(C)Cc1ccc(C(F)(F)F)cc1 | 0 | 2 | 1.8 | i | 11
COc1ccccc1-c1cn(CC[C@@H]2CC[C@@H](NC(=O)CCN3CCCCC3)[C@@H](CO)O2)nn1 | 2 | 2 | -1.5 | i | 1.3

Some of the entries so far, tab-delimited.
SMILES	rRNA inh HTS	rRNA inh HTS OD600	rRNA inh HTS RFP	FGF22 binding	AF4-AF9 inh
C[C@@H]1CN([C@@H](C)CO)C(=O)c2cc(NS(=O)(=O)c3cn(C)cn3)ccc2O[C@H]1CN(C)Cc1ccc(C(=O)Nc2ccccc2N)cc1	4	10	0.5	i	-2.4
CN(C)CC#Cc1ccc([C@@H]2[C@@H](CO)N3CCCCN(CC4CCOCC4)C[C@H]23)cc1	7	2	-2.5	i	6.2
C[C@@H](NC(=O)C[C@H]1C[C@@H]2c3cc(NC(=O)C4CCOCC4)ccc3O[C@@H]2[C@@H](CO)O1)c1ccccc1	-3	6	-2.4	i	-1.0
CCCCN(CCCC)Cc1cc(=O)oc2cc(OC)ccc12	-22	-23	9.7	i	-7.0
COc1ccc(S(=O)(=O)Nc2ccc3c(c2)C(=O)N([C@H](C)CO)C[C@H](C)[C@@H](CN(C)S(=O)(=O)c2ccc(C)cc2)O3)cc1	-2	1	0.7	i	-4.7
C[C@H]1CN([C@@H](C)CO)C(=O)c2cc(/C=C/c3ccccc3)cnc2O[C@@H]1CN(C)S(=O)(=O)c1cccs1	-9	12	-2.0	i	2.4
O=S(=O)(c1ccccc1)N1C[C@@H]2[C@H](c3ccccc31)[C@@H](CO)N2Cc1ccc2c(c1)OCO2	-18	-53	10	i	3.2
C[C@H]1CN([C@@H](C)CO)C(=O)c2cc(NC(=O)NC3CCCCC3)ccc2O[C@H]1CN(C)C(=O)Nc1ccc(F)cc1	2	12	-0.5	i	-0.7

Assay outcomes deposited in PubChem by Broad Institute.
